Assay outcomes: PubChem BioAssay, several laboratories
AF4-AF9 inh: blocks AF4 peptide binding to human AF9. P42568. AlphaScreen, biotin-AF4 peptide binding to FLAG-AF9. inhibition, % at 10 µM. 0.47% of 350,000 active. AID 651704;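 active = every replicate reaching a set inhibition limit, whatever the replicate mean, cut at about 25% in these data; inconclusive = mean inhibition reaches that limit but some replicates miss it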;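 also: 0% = plate neutral control median and 100% = total signal loss; the record names both 10 and 1 µM as test concentration; the first replicate is given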
Target sequence (P42568 whole entry, looked up): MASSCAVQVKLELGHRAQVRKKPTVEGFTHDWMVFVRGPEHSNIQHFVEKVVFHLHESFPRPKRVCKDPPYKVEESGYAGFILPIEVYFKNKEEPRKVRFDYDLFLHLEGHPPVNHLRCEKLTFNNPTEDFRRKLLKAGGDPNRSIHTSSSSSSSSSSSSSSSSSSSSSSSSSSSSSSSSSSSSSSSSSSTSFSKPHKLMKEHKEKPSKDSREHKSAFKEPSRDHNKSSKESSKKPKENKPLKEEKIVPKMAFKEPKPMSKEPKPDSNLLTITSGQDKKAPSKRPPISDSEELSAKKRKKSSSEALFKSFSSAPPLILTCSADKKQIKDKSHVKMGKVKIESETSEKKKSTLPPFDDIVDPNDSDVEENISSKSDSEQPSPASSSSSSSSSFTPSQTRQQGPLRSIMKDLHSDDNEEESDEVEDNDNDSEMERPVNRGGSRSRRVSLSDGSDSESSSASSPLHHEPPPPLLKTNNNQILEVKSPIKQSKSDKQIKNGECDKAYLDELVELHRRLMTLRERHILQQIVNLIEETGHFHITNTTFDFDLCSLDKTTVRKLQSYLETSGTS
Calb FLC: affects C. albicans growth with fluconazole | AID 1979 | C. albicans CaCi-2 (fluconazole-resistant clinical isolate) + fluconazole, Alamar Blue growth, 48 h | 0.57% of 300,000 active | growth inhibition, % (concentration not given with the values);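 active = most replicates above 75%; inconclusive = exactly half above 75%; inactive = most below 75%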;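 also: all wells also contain fluconazole at 8 µg/ml as a sub-toxic cotreatment; 0% = median of DMSO wells and 100% = median of geldanamycin control wells; wells of about 8 µL received 7.5 nL stock; the first replicate is given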
Beta cell apopt: beta cell apoptosis inhibition; INS-1E cytokine-induced death, ATP luminescence, 48 h; percent of positive-control rescue, neutral wells zero; protection from apoptosis, % (test concentration not listed); 0.8% of 300,000 active;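 active = all replicates at 75% or more, or half of them and the mean; inconclusive = half reach 75% but not the mean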;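 also: 0% = cytokine-treated negative control wells and 100% = positive control rescue; higher means more ATP so stronger rescue from cytokine killing; wells of about 40 µL received 100 nL stock; the first replicate is given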
Bfl-1 A1 inh: inhibitors of the anti-apoptotic protein A1, read as caspase activation; MEF A1-2A-BIM cells, Caspase-Glo 3/7 luminescence, 3 h; percent of clofoctol response, vehicle zero; caspase activation, % (test concentration not listed); 0.066% of 330,000 active; AID 2462;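 active = over half of replicate activation scores above 10%, or exactly half above 10 with the replicate mean above 10; inconclusive = replicate mean below 10 yet half the replicates above 10; inactive = over half of replicates below 10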;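 also: wells of about 30 µL received 50 nL stock; many hits fall short of the cut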
T cruzi inh: T. cruzi replication inhibition. T. cruzi beta-gal in NIH3T3, luminescence, 90 h. inhibition, % (test concentration not listed). 1.4% of 300,000 active. AID 1885;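 active = mean inhibition across valid replicates above about 55%, limit read from the data; inconclusive = mean below that limit but half or more replicates reach it; inactive = mean below it, under half of replicates reach it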;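 also: signal also drops with host cell toxicity which is not excluded here; 0% = plate median of DMSO wells and 100% = zero luminescence signal; higher percent means less beta-gal luminescence so fewer parasites; stock transfer was 50 nL into about 50 µL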
RanGTP-Impb inh: disruptors of Ran-importin-beta complex formation – biochemical, FRET, CFP-Ran, YFP-importin-beta, homogeneous, primary screen | cell-free CFP-Ran/YFP-importin-beta FRET ratio | inhibition, % (test concentration not listed) | 1.1% of 300,000 active | AID 2216;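 active = most replicates above 15%; inconclusive = exactly half above 15%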;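 also: 0% = DMSO wells and 100% = Ran loaded with GDP instead of GTP; wells of about 40 µL received 100 nL stock; the first replicate is given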
Vif TR-FRET: HIV-1 Vif–A3G interaction blockers – biochemical, TR-FRET, GST-Vif 1-94, biotin-A3G peptide, dose response retest, primary screen (AID 1117319). 0.57% of 260,000 active. TR-FRET GST-Vif / biotin-A3G peptide binding; higher % means a stronger effect; test concentration not given here; strong numbers were not always called active. inhibition, %, or IC50 in µM where a hit was titrated;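 active = above the screen mean plus three standard deviations and confirmed in dose response; inconclusive = results disagree or hit not tested in dose response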;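 also: Vif residues 1-94 fused to GST binding biotinylated APOBEC3G peptide 110-148; 0% = full assay without inhibitor and 100% = GST in place of GST-Vif; retest series ran down from 100 µM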
LANA-H2B inh: blocks KSHV LANA binding to histone H2A/H2B; Q9QR71; inhibition, % (test concentration not listed); AID 2629; cell-free LANA-H2A/H2B peptide, fluorescence polarization; 0.6% of 320,000 active; in the data active = inhibition mostly above about 10%, no sharp cut-off; inactive = mostly below about 6.7%;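 also: stock transfer was 7.5 nL into about 10 µL; 0% = median of vehicle wells and 100% = median of positive control wells; one replicate is shown; the record names a cut of 25% in any replicate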
* hit, by the source's call; ? = inconclusive; / = not tested or not shown; & = joins results of further samples.

SMILES	AF4-AF9 inh	Calb FLC	Beta cell apopt	Bfl-1 A1 inh	T cruzi inh	RanGTP-Impb inh	Vif TR-FRET	LANA-H2B inh
COc1ccc(OC)c2c(C)cc(N3CCN(C(=O)c4ccc(C)cc4)CC3)nc12	1.8	15.2	-4.5	-0.1	20.6	/	-2.6%	-1.3
CC1=N/C(=C/c2ccco2)C(=O)O1	-2.3	4.0	/	/	-2.1	-4.5	?	/
Cc1ncsc1C(=O)Nc1cccc(C(F)(F)F)c1	1.5	-6.4	1.7	-0.5	-9.3	5.3	6.7%	-7.3
Cn1c(=O)c2c(SCC(=O)NCc3ccco3)nc(-c3ccccc3Cl)nc2n(C)c1=O	-2.5	1.3	3.0	-1.3	19.0	0.2	2.0%	6.4
O=C(O)c1cccc(NC(=S)NC(=O)C(c2ccccc2)c2ccccc2)c1	/	12.5	-3.4	-0.1	-5.1	7.2	-1.2%	-0.1
COc1ccc(-c2nn(-c3ccccc3)cc2C(=O)N2c3ccc(C)cc3C3CN(C)CCC32)cc1 (stereo not given)	12.6	-12.2	14.7	-1.2	39.9	-2.6	-6.3%	0.5
O=C(c1c[nH]c2ccccc12)C(Cl)c1ccccc1 (stereo not given)	-0.8	7.1	-24.7	3.0	-11.4	-0.1	/	-1.1
COc1ccc(-c2nnc(SCc3ccc(C(=O)O)cc3)n2C)cc1OC	-9.6	8.6	1.1	0.0	-4.0	-3.8	/	7.7
Cn1c(=O)c2c(SCC(=O)N3CCCC3)nc(-c3ccccc3)nc2n(C)c1=O	/	/	2.8	0.2	-1.0	/	2.0%	-2.0
CCn1c(SCC(=O)NCc2ccco2)nnc1-c1cccs1	/	/	3.6	0.0	/	/	95.8µM*	-1.8
COc1ccc(O)c(-c2cc(-c3ccccc3[N+](=O)[O-])[nH]n2)c1	/	10.9	0.6	0.0	-8.3	-1.8	0.7%	-2.8
Cc1ccc(C)c(NC(=O)CSc2cccc3cccnc23)c1	-4.9	-2.1	5.5	-0.8	-10.7	0.3	/	16.6*
CC(=O)Oc1ccc(C(C)=O)c2c1OCCO2	/	-13.7	-7.3	-0.7	-4.2	-0.9	7.4%	0.8
CSc1nc2sccc2c(=O)[nH]1	-2.1	-18.0	/	-0.7	-16.4	2.0	-1.5%	-1.6
COc1ccc(SCc2noc(C(=O)NC(C)C)c2C(=O)O)cc1	-33.5	-7.2	-6.1	-0.7	4.6	5.9	-1.7%	-4.5
COc1cc(NC(=O)COC(=O)CCc2cc(OC)c(OC)c(OC)c2)cc(OC)c1	-3.0	27.7	-1.7	-0.3	-15.7	-0.9	-1.5%	-3.9
COc1ccc(NC(=O)CC23CC4CC(CC(C4)C2)C3)cn1	-0.8	-14.3	-4.9	0.6	-5.2	-3.9	/	-1.9
COC(=O)c1cc(C(=O)NCCCN2CCOCC2)cc([N+](=O)[O-])c1	-2.3	1.9	3.0	0.3	14.1	0.3	-1.8%	0.7
CCOc1cc2[nH]c(=O)n(Cc3ccc(C(=O)NCCOC)cc3)c(=O)c2cc1OCC	1.2	-4.0	/	/	7.8	1.5	2.4%	/
COc1cc(OC)cc(-c2nc(-c3cc4cc(C)ccc4nc3OC)no2)c1	/	-0.7	/	/	2.0	-2.2	25.8%	/
Cc1cc(C)c2c(N=NN(C)C)[nH]nc2n1	/	1.5	6.5	1.1	28.4	-2.1	-4.6%	-1.5
Cc1cc(C)n2nc(SCC(=O)Nc3ccc(S(=O)(=O)N(C)C)cc3)nc2n1	-1.6	/	5.9	0.9	/	/	-3.2%	-1.3
O=C1N[C@@H](Cc2cn(S(=O)(=O)c3ccc([N+](=O)[O-])cc3)c3ccccc23)C(=O)N[C@H]1Cc1ccccc1	-3.4	3.9	/	-2.0	1.7	9.4	/	4.0
CCO[C@H]1OC(C(=O)N2CCN(Cc3ccc4c(c3)OCO4)CC2)=C[C@@H](C2CCCCC2)[C@@H]1CCCO	7.9&6.2	-8.2	7.2	-0.2	30.8	5.8	0.1%	-3.0
Cc1cc(Cl)ccc1OCC(=O)NNC(=O)CCOc1ccccc1	3.3	/	-0.6	0.6	/	/	/	-4.7
Cc1ccc(S(=O)(=O)NCC(=O)OCN2C(=O)c3ccccc3C2=O)cc1	/	1.6	-0.2	0.7	-16.3	-2.7	?	-2.1
COc1ccc(/C=C(\NC(=O)c2cccs2)C(=O)NCc2ccco2)cc1OC	2.5	-3.4	-5.5	0.3	-9.9	1.7	-12.6%	1.9
COc1ccccc1/C=N/NC(=O)c1ccc(CN2C(=O)c3cccc4cccc2c34)cc1	-3.0	-4.8	4.0	0.4	-13.3	-1.0	15.8%	0.5
CCCS(=O)(=O)c1nc(S(=O)(=O)c2ccc(C)cc2)c(N2CCN(C)CC2)s1	2.5	-1.4	-7.1	0.6	1.5	-1.3	/	2.9
N#C/C(=C(/O)CSc1ncn[nH]1)c1nc2ccccc2[nH]1	-1.6	11.1	1.3	-0.3	-2.9	2.5	25.4%	2.2
C=CCNC(=O)c1ccc(-c2nc(-c3ccc(Cl)cc3Cl)cs2)cc1	/	-12.6	-0.7	0.0	20.3	0.6	1.6%	-0.5
NS(=O)(=O)c1ccc(CCNCc2ccccc2OCc2ccc(Cl)cc2)cc1	9.5	-1.6	61.9	0.6	15.6	2.7	/	-0.2
CCN(CC)S(=O)(=O)c1ccc(Oc2cccc(C(C)=O)c2)nc1	/	12.3	-4.4	0.1	7.1	-4.0	?	-0.7
CC(=O)Oc1cccc(N2C(=O)C3C4C=CC(C4=C(C)C)C3C2=O)c1 (stereo not given)	/	-2.8	/	0.7	-3.4	0.6	2.4%	-2.1
COc1ccccc1C(=O)NC(CCSC)C(=O)NCC(c1ccco1)N(C)C (stereo not given)	/	-7.3	-6.7	0.3	1.5	-0.1	1.6%	2.5
CC1CCC(NC(=O)c2ccc(NS(=O)(=O)c3ccc4[nH]c(=O)[nH]c4c3)cc2)CC1 (stereo not given)	-1.5	3.7	/	-0.6	-2.8	0.8	-6.6%	-2.8
CCN(C(=N)N=C(N)N)c1ccccc1	-1.6	53.8	-2.2	-0.5	-3.3	-2.3	-8.2%	-3.8
CCOc1cccc(-c2c(C(=O)N/N=C/c3ccncc3)nnn2-c2nonc2N)c1	-3.3	-9.1	/	-1.8	-4.1	2.6	/	-4.9
CCn1c2ccccc2c2nnc(SCC(=O)NCCOC)nc21	/	32.4	-3.0	0.2	-13.3	1.2	-4.2%	16.2
O=S(=O)(Nc1ccccn1)c1cccc(S(=O)(=O)c2ccc(Cl)cc2)c1	-0.5	8.6	-8.6	0.4	11.5	3.0	-5.1%	5.2
CCC(=O)N(CCc1ccccc1)Cc1cc2cc(OC)ccc2[nH]c1=O	-2.9	1.7	-0.3	-0.2	15.1	2.2	/	-0.8
S=C(NCc1ccccc1)N1CCn2cccc2C1c1ccncc1 (stereo not given)	-0.6	-0.6	-3.8	0.5	12.9	1.8	-0.7%	-6.5
Cc1ccc2nc(-c3ccc(SCC(=O)N4CCc5ccccc54)nc3)[nH]c2c1	-12.0	-13.7	14.3	-2.3	16.0	3.9	/	-3.3
CCn1c(=O)cc(OCC(=O)Nc2ccc(C)cn2)c2ccccc21	/	1.2	-3.4	1.5	-10.2	6.0	-34.8%	3.3
CCN1CCN(c2nc3ccccc3nc2C(C#N)S(=O)(=O)c2ccc(C)cc2)CC1 (stereo not given)	/	6.5	-4.4	0.4	-0.4	82.4*	9.7%	1.4

Of the compounds above, these have a furan ring, fused or not:
SMILES	AF4-AF9 inh	Calb FLC	Beta cell apopt	Bfl-1 A1 inh	T cruzi inh	RanGTP-Impb inh	Vif TR-FRET	LANA-H2B inh
CC1=N/C(=C/c2ccco2)C(=O)O1	-2.3	4.0	/	/	-2.1	-4.5	?	/
Cn1c(=O)c2c(SCC(=O)NCc3ccco3)nc(-c3ccccc3Cl)nc2n(C)c1=O	-2.5	1.3	3.0	-1.3	19.0	0.2	2.0%	6.4
CCn1c(SCC(=O)NCc2ccco2)nnc1-c1cccs1	/	/	3.6	0.0	/	/	95.8µM*	-1.8
COc1ccc(/C=C(\NC(=O)c2cccs2)C(=O)NCc2ccco2)cc1OC	2.5	-3.4	-5.5	0.3	-9.9	1.7	-12.6%	1.9
COc1ccccc1C(=O)NC(CCSC)C(=O)NCC(c1ccco1)N(C)C (stereo not given)	/	-7.3	-6.7	0.3	1.5	-0.1	1.6%	2.5

Following part:
SMILES	AF4-AF9 inh	Calb FLC	Beta cell apopt	Bfl-1 A1 inh	T cruzi inh	RanGTP-Impb inh	Vif TR-FRET	LANA-H2B inh
O=C(CSc1nc2ccccc2[nH]1)NC1CCCC1	-0.7	-9.5	-5.5	0.5	-12.8	-2.1	/	-0.6
COc1ccc(NC(=O)c2ccccc2SC)c(OC)c1	-3.1	40.5	2.8	-0.5	-20.7	-3.5	5.9%	4.7
CCOC(=O)C1C(=O)C=C(c2ccc(C)cc2)CC1c1ccco1 (stereo not given)	/	3.2	1.7	0.1	12.6	?	2.4%	-2.4
COc1ccc(C(CNC(=O)c2ccc(OC)c(S(=O)(=O)N3CCCC3)c2)N2CCCC2)cc1 (stereo not given)	1.9	/	-1.6	0.1	/	/	1.0%	-0.5
C=CCn1c(CSCc2ccc(C)cc2)nnc1SCC(=O)NCc1ccccc1	/	4.1	3.9	0.4	-2.6	?	4.3%	-3.8
Cc1ccc(C2CC(c3cccs3)=NN2C(=O)c2ccc(Br)o2)cc1 (stereo not given)	/	-2.1	15.3	0.4	31.0	-0.3	-1.7%	-0.4
Cc1cc(=O)n2[nH]c(-c3sccc3-n3c(C)ccc3C)cc2n1	-24.0	5.6	-7.2	0.9	-32.5	3.2	-3.1%	-4.3
CCOC(=O)c1sc(C)c2c1NC(C)(c1ccccc1)NC2=O (stereo not given)	/	-7.8	0.8	0.4	-1.7	-1.7	-22.3%	6.9
CCc1noc(C)c1C(=O)NNC(=O)c1ccccc1F	-6.1	/	1.4	-0.6	1.5	0.7	2.6%	-5.3
CC(=O)c1c(C)[nH]c(C(=O)OCC(=O)Nc2ccc([N+](=O)[O-])cc2Cl)c1C	-1.5	-0.3	-18.5	-0.8	9.1	-0.9	/	0.8
CCCCCCCCCOC(=O)C(CC(=O)O)N1CCOCC1 (stereo not given)	/	-22.7	-4.0	0.6	-28.7	2.2	-3.8%	-0.1
CC(O)(CS(=O)(=O)Cc1ccccc1Cl)C(=O)Nc1cccc(C(F)(F)F)c1 (stereo not given)	/	-14.7	2.5	0.1	-1.6	1.3	3.6%	0.7
COc1ccc(C2CC(c3ccc(Cl)cc3Cl)Nc3nc(N)nn32)cc1OC (stereo not given)	4.6	13.8	0.0	-1.2	48.7	4.8	4.3%	0.4
Cc1ccc(C(C(=O)NC2CCCC2)N(Cc2ccco2)C(=O)CCC(=O)Nc2cc(C)on2)cc1 (stereo not given)	/	-13.4	-1.0	0.6	8.4	-1.2	3.0%	-0.8

Compounds were not picked by outcome, and some 4.3% of all compounds hit somewhere here.
